Tgondii IFNg: blocks Toxoplasma gondii growth in the presence of IFN-gamma; 69,000 compounds, 3.8% hits; AID 1259416; activity change, negative = inhibition, %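 (about 20 µM by stock and volumes)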; Toxoplasma gondii growth in IFN-gamma-treated host cells; stronger effect = lower value; reference of the scale not given here;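 active = below -70%; inconclusive = fit judged invalid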;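 note: host cells are HeLa cells infected with Toxoplasma gondii; parasite growth read as luciferase light; one replicate is shown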
Active calls of the source: *; ? = inconclusive.

SMILES	Tgondii IFNg
CCC(C(=O)OC)N1CCOc2c(O)cc(-c3ccc(C)s3)cc2C1 (stereo not given)	-5
CC(C)c1nccn1CC(=O)N1CCOC(c2nc(-c3cccc(C(F)(F)F)c3)no2)C1 (stereo not given)	1
CCOCC(=O)N1C[C@@H]2CN(c3ncccn3)CC[C@H]2C1	24
N#CC1(c2ccccc2)CCCN1C(=O)c1ccc(Br)o1 (stereo not given)	-58
CNC(C)CCC=C(C)C (stereo not given)	19
CN1CCOCC2(CCCN(C(=O)Cc3ccsc3)C2)C1 (stereo not given)	3
Cn1cc(CN(Cc2cc3cc4c(cc3[nH]c2=O)OCO4)C2CC2)cn1	-6
Cc1nnc(SCC(=O)NCCc2ccccc2)[nH]c1=O	-1
CO[C@H]1CN(Cc2c(C)ccc3ncccc23)CC[C@H]1N	1
CCc1nc(C)c(C(=O)N2CC[C@@H](c3sccc3C)[C@H](O)C2)o1	2
Cc1cnn(Cc2nc(-c3ccc(NC(=O)c4cc(F)cc(F)c4)cc3)oc2C)c1	87
Cn1ccnc1CNC(=O)c1cc(-c2cccs2)on1	26
CCOC(=O)c1nnn(-c2nonc2N)c1CN1CCCCC1C (stereo not given)	7
CCCN1CCC(c2cc3c(ncn3C)c(-c3cnn(C)c3)n2)CC1	0
Cc1cccc(-c2c(-c3ccccc3)ncn2CCN2CCOC2=O)c1C	8
CCc1c(C)nn(C)c1NC(=O)c1ccc(CN2CCN3CCCC3C2)cc1 (stereo not given)	-6
COc1cc(NC(=O)CSCC(=O)O)c(C(=O)O)cc1OC	55
O=C1NC2(O)C(=O)c3ccccc3C2(O)N1 (stereo not given)	20
c1ccc(Oc2ccc(-n3nnnc3N3CCC4(CCCO4)CC3)cc2)cc1	-20
CCS(=O)(=O)N1CCC2(CCC2NC(=O)c2cnccn2)CC1 (stereo not given)	6
Cc1ccc(C)c2c1cc(C(=O)N(Cc1ccccn1)CC1CCCO1)n2C (stereo not given)	6
O=C1NCC2(CCCN(C(=O)Cc3ccc4c(c3)OCO4)C2)O1 (stereo not given)	-6
COc1cccc(CC(=O)Nc2ccc(-c3nc(Cn4cccn4)c(C)o3)cc2)c1	-44
O=C(Cc1ccc(F)cc1)N1CCC2(CC(=O)N(c3cccc(F)c3)C2)C1 (stereo not given)	1
CCS(=O)(=O)N1Cc2cc(C(=O)N(C)C)nc(-c3cccc(-c4ccc(C#N)cc4)c3)c2[C@H]1CCO	50
O=C(Cc1cccnc1)N1[C@H](CO)[C@H](c2ccccc2)[C@H]1CNCC1CCC1	5
COc1ccc(-c2nc(Nc3ccccc3)c3ccccc3n2)cc1	-38
N[C@@H](CSCC(=O)O)C(=O)O	18
COc1cccc(S(=O)(=O)N2C[C@H](O)COC[C@@H]3O[C@@H](CC(=O)NCCCN4CCOCC4)CC[C@H]32)c1	3
O=C(c1ccc(OC2CCN(Cc3ccccn3)CC2)cc1)N1CCc2ccccc2C1	-3
C[C@@H]1CCCCO[C@H](CN(C)C(=O)Nc2ccc(C(F)(F)F)cc2)[C@@H](C)CN([C@@H](C)CO)C(=O)c2cc(NS(=O)(=O)c3cn(C)cn3)ccc2O1	49
Cc1nc(C(F)(F)F)ccc1-c1nnc(SCCCN2C(=O)c3ccccc3C2=O)o1	14
Cc1nc2sc(-c3ccccc3)cc2c(=O)o1	-35
CCc1noc(C)c1C(=O)NCc1cnn2ccccc12	-8
O=C(CS(=O)(=O)c1ccc(Cl)cc1)NOC(=O)c1ccc(Cl)cc1	10
Cc1cccc(-c2nc(Cn3cnc4onc(C)c4c3=O)c(C)o2)c1	31
COc1ccc2c(c1)NC1(CCN(C(=O)NC34CC5CC(CC(C5)C3)C4)CC1)c1cccn1-2	-68
CCN(CC)C(=O)c1cc(=O)n(CC(=O)Nc2cccc(F)c2)c2ccccc12	4
Cc1cccc(Nc2ccncc2S(=O)(=O)NC(=O)NC(C)C)c1	20
COc1ccc(Nc2nccc(NCCO)n2)cc1	85
CCc1nc(N)c(C#N)c(-c2ccccc2)c1C	12
CCN(CC)c1nc(SCCOC(=O)Nc2ccccc2)nc(N(CC)CC)n1	-38
O=C(Nc1ccccc1)c1cc2n(n1)CCCN(C(=O)[C@H]1C[C@@H]3C=C[C@H]1C3)C2	-11
O=C(CC1Nc2c3ccccc3nc(=S)n2C1=O)NCCN1CCN(c2cccc(Cl)c2)CC1 (stereo not given)	7
COc1ccccc1NC(=O)N1[C@H](C#N)[C@@H](c2ccccc2)[C@@H]1CO	23
Cc1ccc(C(C)NC(=O)CNCCN(C)S(C)(=O)=O)cc1 (stereo not given)	7
O=C(O)C1CN(S(=O)(=O)c2cccc(Oc3ccccc3)c2)CCN1 (stereo not given)	2
Cc1cccc(NC(=O)Cn2c(=O)cc(C(=O)N3CCCC3)c3ccccc32)c1	-55

As a short view, some entries already given.
SMILES	Tgondii IFNg
COc1ccccc1NC(=O)N1[C@H](C#N)[C@@H](c2ccccc2)[C@@H]1CO	23
Cc1ccc(C(C)NC(=O)CNCCN(C)S(C)(=O)=O)cc1 (stereo not given)	7
O=C(O)C1CN(S(=O)(=O)c2cccc(Oc3ccccc3)c2)CCN1 (stereo not given)	2
Cc1cccc(NC(=O)Cn2c(=O)cc(C(=O)N3CCCC3)c3ccccc32)c1	-55

The listing continues:
SMILES	Tgondii IFNg
COc1ccc(CNC(=O)Cn2ncc3c(N4CCC(C)CC4)ncnc32)cc1	-85*
CCOC(=O)CC1CCCCN1Cc1cc(=O)n2nc(CC)sc2n1 (stereo not given)	0
COC(C)c1ccc(-c2ccc(-c3nnc(C)o3)cc2)cc1 (stereo not given)	157
CCN1c2ccccc2C(=O)NC12CCN(C(=O)NCCc1ccccc1)CC2	-7
C[C@H](CO)N1C[C@H](C)[C@H](CN(C)Cc2ccc(-c3ccccc3)cc2)Oc2ccc(N(C)C)cc2CC1=O	-83*
C[C@@H]1CN([C@@H](C)CO)S(=O)(=O)c2ccc(C#CCC3CCCC3)cc2O[C@@H]1CN(C)C(=O)c1cnccn1	?
COc1ccc(C(=O)CSc2nc(Cc3cccs3)nc3ccccc23)cc1	11
CN(C)CCN(Cc1ccco1)S(=O)(=O)c1ccc2[nH]c(=O)ccc2c1	17
Cn1cc(-c2ncnc3c2CCN(c2ncc(F)cn2)CC3)cn1	1
COc1cccc(-c2cc(CNC(=O)C(C)(C)NC(=O)c3cccs3)on2)c1	-10
NC(=O)c1cncc(N2CCCC(CO)(Cc3ccc(F)cc3)C2)n1 (stereo not given)	11
C=CCOCC1CN(CCc2ccccc2)Cc2ccnn2C1 (stereo not given)	-15
CCC1OC(=O)[C@H](C)C(=O)[C@H](C)[C@@H](OC2O[C@H](C)C[C@H](N(C)C)[C@H]2O)[C@](C)(OC)C[C@@H](C)C(=O)[C@H](C)[C@H]2N(CCCCn3cnc(-c4cccnc4)c3)C(=O)O[C@@]12C (stereo not given in full)	4
CC(C)C#Cc1ccc([C@@H]2[C@@H](C#N)N(C(=O)c3cccc(F)c3)[C@H]2CO)cc1	-12
COCC#Cc1ccc([C@H]2[C@H]3CN(C(=O)c4ccncc4)CC(=O)N3[C@H]2CO)cc1	7
Cc1nc2nc[nH]n2c(=O)c1CCC(=O)NCC1(c2cccc(F)c2)CCOCC1	10
N#Cc1ccc(Oc2nc3cc(Cl)ccc3s2)cc1	37
C[C@H]1CN([C@@H](C)CO)C(=O)Cc2cc(NC(=O)C3CCCCC3)ccc2O[C@@H]1CN(C)Cc1ccc(Cl)c(Cl)c1	-40
Cc1nc(SCC(=O)NCc2ccc3c(c2)OCCCO3)n[nH]1	33
CC(NC(=O)c1nc(Nc2ccc(F)cc2)c2ccccc2n1)c1ccccc1 (stereo not given)	-8
CCC1CCCCN1CCCNC(=O)C1=C(C)C(=O)OC12CCN(CC)CC2 (stereo not given)	151
CN1C(=O)c2cc(NC(=O)Nc3ccc(Cl)cc3)ccc2OC[C@@H]2O[C@@H](CC(=O)NCCN3CCCCC3)CC[C@H]21	-42
O=C(NCCC1=CCCCC1)c1cnsn1	49
Cc1ccc(CNC(=O)Cn2ncc3c(N4CCN(c5ccccc5)CC4)ncnc32)cc1	-15
CS(=O)(=O)c1snnc1C1CCCN(Cc2cn(CC(N)=O)c3ccccc23)C1 (stereo not given)	48
CC(c1ccc(-c2ccc3nc(C4CC4)cc(C(=O)O)c3c2)cc1)N1CCOCC1 (stereo not given)	4
CN(C)C(=O)C1CCC2(CCN(C(=O)Nc3cccc(F)c3)CC2)O1 (stereo not given)	-46
O=S(=O)(c1ccccc1F)N1CCC2(CC1)COCCN(Cc1cccnc1)C2	2
Cc1ccccc1C1(O)CCN(Cc2nc(-c3ccco3)no2)C1 (stereo not given)	-9
O=C(CC1N=C2c3ccccc3N=C(SCc3ccccc3F)N2C1=O)NC1CCCCC1 (stereo not given)	-43
Cc1ccccc1-c1noc(CN(C)C(C)c2ccon2)n1 (stereo not given)	7
Cc1ccc(Cn2c(=O)c3nn(C)cc3n3c(=O)n(Cc4nc(-c5ccc(C)cc5)oc4C)nc23)cc1	15
Cc1nc(C)c(S(=O)(=O)NCc2ccc(-c3cccs3)cc2)s1	-9
CCN1CC(CNC(=O)c2cc(NC(=O)C(C)C)cc3nc(C)n(Cc4ccccc4)c23)CC1=O (stereo not given)	0
CCS(=O)(=O)N1CC2(CN(C(=O)Cc3ccccn3)[C@H](CO)c3[nH]c4cc(OC)ccc4c32)C1	26
COc1c[nH]c(CN2CCCC2c2nc3ccc(F)cc3[nH]2)cc1=O (stereo not given)	13
CS(=O)(=O)N1CCOC(Cn2cnc3sc4c(c3c2=O)CCNC4)C1 (stereo not given)	1
CSc1nc(COc2ccc(C(C)(C)C)cc2)nc(-c2ccc(Cl)cc2)c1C#N	4
COCCN1CCC2C1CCC(=O)N2CCN1CCCC1 (stereo not given)	0
Cc1nc(-c2cccc(F)c2)sc1CCNC(=O)c1ccco1	62

Single entries from the list.
Cc1nc(C)c(S(=O)(=O)NCc2ccc(-c3cccs3)cc2)s1 in Tgondii IFNg shows -9
CS(=O)(=O)N1CCOC(Cn2cnc3sc4c(c3c2=O)CCNC4)C1 (stereo not given) in Tgondii IFNg shows 1
COCCN1CCC2C1CCC(=O)N2CCN1CCCC1 (stereo not given) in Tgondii IFNg shows 0
CCN1CC(CNC(=O)c2cc(NC(=O)C(C)C)cc3nc(C)n(Cc4ccccc4)c23)CC1=O (stereo not given) in Tgondii IFNg shows 0
COc1c[nH]c(CN2CCCC2c2nc3ccc(F)cc3[nH]2)cc1=O (stereo not given) in Tgondii IFNg shows 13
CSc1nc(COc2ccc(C(C)(C)C)cc2)nc(-c2ccc(Cl)cc2)c1C#N in Tgondii IFNg shows 4

Continued:
SMILES	Tgondii IFNg
CCn1cc2c(n1)C(COC)CN(S(=O)(=O)c1cccc(C)c1)C2 (stereo not given)	42
COCCCn1c(-c2ccc(Cl)cc2)cc(-c2cccs2)c1-c1ccccc1	119
COc1ccc(NC(=O)N(C)C[C@H]2Oc3ccc(NC(=O)Nc4cccc5ccccc45)cc3CC(=O)N([C@@H](C)CO)C[C@@H]2C)cc1	40
COc1ccccc1NC(=O)C12CCC(C)(C(=O)C1)C2(C)C (stereo not given)	11
CCC/C=C/c1ncccc1C(=O)N1CCCC1	7
CN1CCN2C[C@@H](NC(=O)CCc3ccc4c(c3)OCO4)C[C@H]2C1	-14
CCCNC(=O)C[C@@H]1CC[C@@H]2[C@@H](COc3ccc(NC(=O)CC)cc3C(=O)N2C)O1	0
COC(=O)c1ccc(C#CC(C)(C)O)cc1	17

Part of the list above, as labelled records:
CCn1cc2c(n1)C(COC)CN(S(=O)(=O)c1cccc(C)c1)C2 (stereo not given)
  Tgondii IFNg = 42

COCCCn1c(-c2ccc(Cl)cc2)cc(-c2cccs2)c1-c1ccccc1
  Tgondii IFNg = 119

(cont.)
SMILES	Tgondii IFNg
COc1ccc(NC(=O)CN2CCC3(CC2)N=C(c2cccc(F)c2)C(=O)N3)cc1Cl	-29
CCn1c(SCc2nnc(-c3ccc(OC)c(OC)c3)o2)nc2ccccc2c1=O	5
CN(C(=O)CCn1cnc2ccccc2c1=O)c1nnc(SCc2ccccc2)s1	5
COc1ccc(-n2c(C)cc(CNS(=O)(=O)c3ccc4c(c3)CCC(=O)N4)c2C)cc1	258
COc1ccc(CN(C)Cc2ncc[nH]2)c2cccnc12	-4
C[C@@H]1CN([C@H](C)CO)C(=O)c2cc(NC(=O)CCCN(C)C)ccc2O[C@H]1CN(C)Cc1ccc(Cl)c(Cl)c1	-8
O=C1CN(Cc2cccn2-c2ccccn2)CC(OCc2ccncc2)CN1C1CCCCC1 (stereo not given)	2
COc1ccc(NC(=O)CCCCc2cccs2)cc1	-3
Cc1cccnc1CN1CCN(Cc2ccc(-c3ccccc3)nc2)CC1	-9
COc1cccc(CN2CCC3(CCN(CC4CCOCC4)C3)C2=O)c1 (stereo not given)	-4
CC1=C(C(=O)Nc2ccccc2F)C2(CCN(Cc3ccccc3)CC2)OC1=O	2
Cc1cc(C)n2c(SCc3ccc(C(=O)c4ccccc4)cc3)nnc2n1	-68
CN(C)C(=O)[C@@H]1CCC[C@@]12CCN(Cc1cnn(C)c1)C2	24
CN(CCc1noc(C2CC2)n1)C(=O)c1cccc(CC2CCNCC2)c1	8
O=C(Nc1ccccc1CO)c1cccc(CN2CCC2c2ccccc2)c1 (stereo not given)	-5
COC(=O)[C@@H]1C[C@@H](NC(=O)c2c(-n3cccc3)sc(C)c2C)CN1C	87

An excerpt; the hit share may differ from the screen's.
